High-throughput results as filed in PubChem.
RanGTP-Imp inh = inhibitors of RanGTP-importin-beta interaction, primary screen, biochemical, FRET, CFP-Ran, YFP-importin-beta, homogeneous. AID 2216. cell-free CFP-Ran/YFP-importin-beta FRET ratio. 1.1% of 300,000 active. inhibition, % (concentration not given with the values);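 active means most replicates above 15%; inconclusive means exactly half above 15%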;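 further: 0% = DMSO wells and 100% = Ran loaded with GDP instead of GTP; wells of about 40 µL received 100 nL stock; the first replicate is given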
AF4-AF9 inh = MLL-AF4/AF9 protein interaction inhibition; P42568; AlphaScreen, biotin-AF4 peptide binding to FLAG-AF9; inhibition, % at 10 µM; 0.47% of 350,000 active; AID 651704;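 active means every replicate reaching a set inhibition limit, whatever the replicate mean, cut at about 25% in these data; inconclusive means mean inhibition reaches that limit but some replicates miss it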;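 further: 0% = plate neutral control median and 100% = total signal loss; the record names both 10 and 1 µM as test concentration; the first replicate is given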
Target sequence (P42568 whole entry, looked up): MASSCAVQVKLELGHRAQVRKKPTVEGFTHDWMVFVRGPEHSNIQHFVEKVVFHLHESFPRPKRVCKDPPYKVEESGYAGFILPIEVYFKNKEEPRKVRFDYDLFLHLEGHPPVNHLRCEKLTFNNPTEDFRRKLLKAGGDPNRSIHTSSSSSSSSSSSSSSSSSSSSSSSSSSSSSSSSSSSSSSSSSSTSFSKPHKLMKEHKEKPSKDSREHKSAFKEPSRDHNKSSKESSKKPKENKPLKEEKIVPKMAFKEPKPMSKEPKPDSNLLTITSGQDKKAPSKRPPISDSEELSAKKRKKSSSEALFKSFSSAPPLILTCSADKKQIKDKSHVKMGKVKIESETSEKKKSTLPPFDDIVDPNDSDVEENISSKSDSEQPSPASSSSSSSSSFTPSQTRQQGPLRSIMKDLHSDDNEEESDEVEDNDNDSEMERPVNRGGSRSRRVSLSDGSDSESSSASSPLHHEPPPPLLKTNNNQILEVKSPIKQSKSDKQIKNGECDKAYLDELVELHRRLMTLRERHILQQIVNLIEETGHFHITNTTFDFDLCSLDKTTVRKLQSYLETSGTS
A1 inh = inhibitors of the anti-apoptotic protein A1, read as caspase activation. MEF A1-2A-BIM cells, Caspase-Glo 3/7 luminescence, 3 h; percent of clofoctol response, vehicle zero. 0.066% of 330,000 active. caspase activation, % (concentration not given with the values);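 active means over half of replicate activation scores above 10%, or exactly half above 10 with the replicate mean above 10; inconclusive means replicate mean below 10 yet half the replicates above 10; inactive means over half of replicates below 10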;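 further: wells of about 30 µL received 50 nL stock; many hits fall short of the cut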
Vif A3G = HIV-1 Vif–A3G interaction blockers – biochemical, TR-FRET, GST-Vif 1-94, biotin-A3G peptide, dose response retest, primary screen (AID 1117319); TR-FRET GST-Vif / biotin-A3G peptide binding; higher % means a stronger effect; test concentration not given here; strong numbers were not always called active; inhibition, %, or IC50 in µM where a hit was titrated; 0.57% of 260,000 active;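 active means above the screen mean plus three standard deviations and confirmed in dose response; inconclusive means results disagree or hit not tested in dose response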;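 further: Vif residues 1-94 fused to GST binding biotinylated APOBEC3G peptide 110-148; 0% = full assay without inhibitor and 100% = GST in place of GST-Vif; retest series ran down from 100 µM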
T cruzi repl = T. cruzi replication inhibition | AID 1885 | inhibition, % (test concentration not listed) | T. cruzi beta-gal in NIH3T3, luminescence, 90 h | 1.4% of 300,000 active;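 active means mean inhibition across valid replicates above about 55%, limit read from the data; inconclusive means mean below that limit but half or more replicates reach it; inactive means mean below it, under half of replicates reach it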;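 further: signal also drops with host cell toxicity which is not excluded here; 0% = plate median of DMSO wells and 100% = zero luminescence signal; higher percent means less beta-gal luminescence so fewer parasites; stock transfer was 50 nL into about 50 µL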
Calb FLC = affects C. albicans growth with fluconazole; C. albicans CaCi-2 (fluconazole-resistant clinical isolate) + fluconazole, Alamar Blue growth, 48 h; growth inhibition, % (test concentration not listed); 0.57% of 300,000 active;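 active means most replicates above 75%; inconclusive means exactly half above 75%; inactive means most below 75%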;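 further: all wells also contain fluconazole at 8 µg/ml as a sub-toxic cotreatment; 0% = median of DMSO wells and 100% = median of geldanamycin control wells; wells of about 8 µL received 7.5 nL stock; the first replicate is given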
Beta cell apopt = blocks beta cell apoptosis | INS-1E cytokine-induced death, ATP luminescence, 48 h; percent of positive-control rescue, neutral wells zero | protection from apoptosis, % (no concentration beside the values) | 0.8% of 300,000 active | AID 435005;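 active means all replicates at 75% or more, or half of them and the mean; inconclusive means half reach 75% but not the mean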;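 further: 0% = cytokine-treated negative control wells and 100% = positive control rescue; higher means more ATP so stronger rescue from cytokine killing; wells of about 40 µL received 100 nL stock; the first replicate is given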
Ecoli rRNA inh = inhibits bacterial ribosomal RNA function over humanized ribosomes | E. coli WT GFP vs humanized-ribosome RFP mutants, fluorescence, 24 h; active compounds read low; DMSO median 0, no signal -100 | GFP signal change (wild-type ribosome), % (test concentration not listed) | 1.6% of 350,000 active | AID 720706;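 active means significant combined selectivity score with lowered wild-type GFP, culture density cut under 30%, mutant RFP and density less affected; inactive means any of these conditions unmet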; further: one replicate is shown; some compounds called inactive have numbers as strong as hits
Ecoli rRNA inh OD600 = second read-out of Ecoli rRNA inh, no call of its own (marks repeat the call); OD600 change, %; measured here: OD600 growth;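 optical density of the mix in the first replicate; 0 = DMSO median and -100 = no signal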
Ecoli rRNA inh RFP = second read-out of Ecoli rRNA inh, no call of its own (marks repeat the call); RFP signal change, %; measured here: RFP humanized mutant strains;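 first replicate; 0 = DMSO median and -100 = no signal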
Starred values were filed as active, the others as inactive; ? = inconclusive; · = no result given; & = joins results of further samples. Not all compounds are listed, so the mix of outcomes need not match the whole.

smiles,Ecoli rRNA inh RFP,AF4-AF9 inh,A1 inh,RanGTP-Imp inh,Ecoli rRNA inh,Vif A3G,Ecoli rRNA inh OD600,Calb FLC,T cruzi repl,Beta cell apopt
CCCS(=O)(=O)N1CCC(C(=O)NCCN(C)Cc2ccccc2)CC1,·,·,0.0,0.9,·,-5%,·,-5,12,-1
CCOC(=O)N1CCC(NC(=O)C2CCCN(C(=O)N3CCOc4ccccc43)C2)CC1 (centres undefined),·,·,0.6,-0.4,·,15%,·,2,-8,-8
CSc1ccccc1NC(=O)CN(C)C(=O)CNc1ccc(C(F)(F)F)cc1[N+](=O)[O-],-2.8,-2.0,-0.1,·,4,1%,18,·,·,-4
Cc1cc(NC(=O)CSc2nnnn2C2CCCC2)no1,·,·,1.5,1.4,·,23%,·,-8,-5,-4
CCN(C[C@H]1N[C@@](C)(C(=O)OC)[C@H]2C(=O)N(C)C(=O)[C@@H]12)C(=O)Nc1ccccc1,·,-1.7,-0.9,·,·,-9%,·,·,·,-10
O=C(NCc1ccc2c(c1)OCO2)c1nc(S(=O)(=O)Cc2ccccc2F)ncc1Cl,1.0,-4.2,0.7,-1.3,1,·,-2,1,-1,7
CCC(NS(=O)(=O)c1c(C)[nH]c(=O)[nH]c1=O)C12CC3CC(CC(C3)C1)C2 (centres undefined),·,·,0.3,4.3,·,2%,·,0,0,-7
CS(=O)(=O)N(CC(=O)Nc1ccc(Cl)c(Cl)c1)C1CCCCC1,·,·,-0.3,0.1,·,0%,·,?,-2,·
COc1ccc(NS(=O)(=O)c2cccc(NC(=O)CNC(C)=O)c2)cc1,2.4,0.1,1.0,-1.8,1,32%,5,-5,2,-7
Cn1nnc2c(sc3nc(N4CCOCC4)c4c(c32)CCCC4)c1=O,·,·,-0.8,-3.7,·,-7%,·,6,-4,17
O=C(CCl)NC1(C(F)(F)F)C(=O)Nc2c1c(=O)[nH]c(=O)n2-c1ccccc1 (centres undefined),-0.2,-1.9,0.4,2.4,10,-5%,7,2,-7,0
Cc1cc(C)cc(-n2ncc3c2CCCC3NC(=O)CCCn2cncn2)c1 (centres undefined),0.0,-0.3,1.5,2.4,4,·,3,-5,-2,-3
CCOC(=O)/C(C#N)=C/c1cn(CCOc2ccc(OC)cc2)c2ccccc12,13,6.7,-0.8,-11,19,-9%,4,-22,17,6
COc1ccc(CNC(=O)c2cccc3c2C(=O)N(CC2CCCO2)C3)cc1 (centres undefined),-2.9,-2.6,0.2,-1.3,-7,·,-3,4,10,-5
O=C(Cc1ccc(Cl)cc1)NC1CCS(=O)(=O)C1 (centres undefined),2.0,-9.4,-0.7,-4.7,-9,3%,2,3,-9,1
COc1ccc(OCc2nnc(SCC(=O)N3CCCCC3)o2)cc1,-2.4,-5.6,-1.4,0.6,1,·,-1,9,-7,-1
CCC(C)[C@H](NC(=O)C1CC(=O)N(c2ccc3c(c2)OCCO3)C1)C(=O)NC1CCCC1 (some centres undefined),-2.6,-2.1,-0.7,3.8,3,·,7,-2,-11,0
CCC(C)N(C(=O)CSc1nnc(C)n1C)C1CCS(=O)(=O)C1 (centres undefined),3.1,-1.8,-0.4,1.0,11,-2%,6,1,1,·
COC(=O)c1[nH]c2ccc(C)cc2c1NS(=O)(=O)c1ccc(F)c(C)c1,·,·,-0.6,-3.9,·,4%,·,-9,19,0
COC(=O)c1ccsc1NC(=O)c1ccc2c(c1)OCCO2,1.8,-9.0,-6.8,5.3,12,·,10,-4,-15,·
O=C1CC(Cc2ccc(Cl)cc2)C(=O)N1c1ccncc1 (centres undefined),·,·,-0.1,2.1,·,-4%,·,10,-6,-8
O=c1c2ccccc2c(C=NCc2ccccn2)c(O)n1-c1ccccc1Cl,3.1,6.1,0.2,4.0,-12,1%,0,0,7,0
O=C1CC(SC(=NCc2ccc3c(c2)OCO3)Nc2ccccc2)C(=O)N1 (centres undefined),·,·,-1.9,4.0,·,2%,·,-9,1,5
CCCn1c(N)c(C(=O)CSc2nnnn2-c2ccc(O)cc2)c(=O)n(C)c1=O,·,·,0.6,3.4,·,6%,·,-3,-12,-5
C=C(C)CSc1nnc(-c2ccc(C)cc2)n1N,·,·,0.1,2.2,·,-2%,·,1,-8,-2
Cc1cc(C)cc(NC(=O)C2CCN(C(=O)c3cccs3)CC2)c1,-4.6,1.6,2.0,-6.1,-6,0%,-12,-16,-10,1
O=C(CCc1ccccc1)Nc1cc(NC(=O)CCc2ccccc2)cc(C(=O)O)c1,-0.5,-3.4,-0.2,?,4,4%,0,-9,-11,4
COc1ccccc1CNC(=S)Nc1ccc(S(N)(=O)=O)cc1,·,·,-0.9,2.1,·,-1%,·,2,-16,·
CS(=O)(=O)N1CCC(Oc2ccccc2C(=O)NC2CCCCCC2)CC1,3.8,-4.7,1.1,0.0,8,·,5,-14,26,4
COc1cc(/C=N/Nc2ccc(Cl)c(C(=O)O)c2)ccc1OC(=O)c1ccc(F)cc1,-1.3,3.9,-0.3,-4.0,-5,·,-2,7,-3,-3
Cc1c(CN2CC[C@@H](N3CCN(c4ccccn4)CC3)[C@H](O)C2)[nH]c2ccc(F)cc12,0.3,11,0.8,-2.2,-12,·,-9,-6,-3,·
Cc1ccnc(NC(=O)COC(=O)C2COc3ccccc3O2)n1 (centres undefined),·,·,0.4,·,·,-3%,·,-16,7,-3
O=C(NCC1CCCN1S(=O)(=O)c1cccs1)c1ccccc1F (centres undefined),2.1,?,2.0,?,2,0%,2,-5,?,2
CCc1ccc(NC(=O)Nc2cccc(OC)c2)cc1,-3.0,-3.2,-5.8,-0.9,0,9%,2,-4,14,5
O=C(NCc1ccccc1)c1ccc(=O)[nH]n1,·,·,-0.7,-3.8,·,7%,·,2,-10,-3
CC(=O)c1c(C)nc2ccc(Cl)cn12,·,·,-0.2,-2.2,·,?,·,-3,2,0
CCC(c1nc2ccccc2c(=O)n1CCCn1ccnc1)N1C(=O)c2ccccc2C1=O (centres undefined),·,·,1.0,-0.7,·,-2%,·,-10,8,-7
CCC(=O)N1CCc2cc(S(=O)(=O)CCC(=O)Nc3ccc(F)c(F)c3)ccc21,·,·,0.2,3.8,·,0%,·,-1,-9,2
Cc1ccc(S(=O)(=O)c2cc3cc(Br)ccc3oc2=O)cc1,·,·,1.9,2.8,·,·,·,23,2,-6
CC(C)NC(=O)Nc1ccc2c(c1)C(=O)N([C@H](C)CO)C[C@H](C)[C@@H](CN(C)S(=O)(=O)c1ccc(F)cc1)O2,2.1&1.9,-1.8,?,·,3&7,·,5&0,·,·,-9
COc1cccc(CN2CCNC(=O)C2CC(=O)N(C)CCC2CCOCC2)c1OC (centres undefined),-1.0,1.0,-0.5,0.8,6,·,10,-10,6,-7
CCC(C)NC(=O)CSc1nc(-c2cccs2)cc(C(F)(F)F)n1 (centres undefined),·,·,0.2,7.1,·,-2%,·,-9,-4,-2
O=C(c1ccc(OC2CCN(C/C=C/c3ccccc3)CC2)cc1)N1CCCCC1,-1.1,7.9,0.6,-2.6,-1,5%,-1,4,17,-2
O=C(c1ccccc1)N1N=C(c2ccccc2O)CC1c1ccc(Br)cc1 (centres undefined),0.9,-7.7,1.2,-0.9,0,-11%,5,-16,14,11
CC1=NN(c2ccccc2)C(=O)C1C(=O)C(=O)Nc1ccc(F)cc1 (centres undefined),-0.5,2.8,0.5,-2.9,13,-3%,6,-2,-2,4
O=C(c1cc2cc(F)ccc2[nH]1)N1CCN(c2cccc(Cl)c2)CC1,-2.4,1.1,-1.0,-4.1,1,-3%,6,9,-5,4
COc1cc(/C=N/NC(N)=S)ccc1OCc1ccc(C)cc1,-1.1,1.8,1.1,?,0,-6%,-1,18,58*,35
Cc1ccc(Cn2c(SCCN3CCCCC3)nc3c2c(=O)[nH]c(=O)n3C)cc1,-3.4,-7.1,-0.2,0.0,3,5%,6,-6,14,3
O=C(Nc1nc(-c2ccccc2)cs1)c1cccc([N+](=O)[O-])c1,·,·,-0.3,0.7,·,8%,·,-32,55*,5
O=C(NCC1CCCO1)/C(=C\c1ccc(Cl)cc1)NC(=O)c1ccccc1 (centres undefined),·,·,-0.3,1.6,·,1%,·,-2,7,-1
Cc1cccc(-n2c(N)c(C(=O)N3CCN(C)CC3)sc2=S)c1,·,·,0.2,5.4,·,-15%,·,0,0,-1
CN(CC(=O)Nc1ccc(Cl)cc1)C(=O)CCc1ccccc1,2.1,1.5,-0.7,-3.6,-4,·,-3,-24,17,-9
CCCC(=O)N1CC2(C)CN(C(=O)CCC)CC(CCC)(C1)C2=O,·,·,1.0,1.1,·,-2%,·,-2,-2,-7
CCOC(=O)N1CCc2c(sc(NC(=O)CN3CCN(C)CC3)c2C(=O)Nc2ccccc2)C1,1.6,2.8,0.1,2.1,0,4%,3,16,4,-7
Cc1ccccc1CNC(=O)CN(c1cccc([N+](=O)[O-])c1)S(C)(=O)=O,-1.4,1.5,0.8,-7.3,5,1%,4,12,-1,-1
CCN(CC)CC(=O)NCC1(c2ccccc2)CCCC1,-0.7,1.8,0.2,0.5,6,12%,7,21,-13,-6

Next section:
smiles,Ecoli rRNA inh RFP,AF4-AF9 inh,A1 inh,RanGTP-Imp inh,Ecoli rRNA inh,Vif A3G,Ecoli rRNA inh OD600,Calb FLC,T cruzi repl,Beta cell apopt
COc1cc(OC)cc(C(=O)Nc2cc(-c3cn4cccnc4n3)ccc2C)c1,-1.0,2.2,0.7,?,11,-1%,-8,7,0,6
Cc1ccc(CNC(=O)CN(c2ccc(C(C)C)cc2)S(=O)(=O)c2c(C)noc2C)cc1,-3.8,1.2,-0.6,0.7,3,-2%,12,5,13,1
Nc1nc2ccccc2cc1S(=O)(=O)c1ccccc1,2.4,-0.4,0.7,0.3,10,·,4,-20,-2,·
Cn1c2ccccc2c(=O)c2ccc(-c3ccc4c(c3)OCO4)cc21,-15,1.2,-7.1,49*,-9,·,-34,3,26,0
Cc1cccc(Nc2nn3c(=O)c4ccccc4nc3s2)c1,·,·,-2.6,-3.2,·,-73%,·,1,7,4
CCC(=O)N1CCc2cc(S(=O)(=O)CCC(=O)NCCc3ccc(S(N)(=O)=O)cc3)ccc21,1.5,-0.5,-0.3,0.2,4,2%,10,3,-15,·
CCOc1ccc(S(=O)(=O)NCCC(=O)N(C)CC(=O)Nc2ccc(OC)cc2)cc1,1.2,4.0,-0.1,-2.6,-1,·,7,0,-4,1
FC(F)Oc1ccccc1NC(=S)NCCc1ccccc1,-5.8,-3.2,0.0,-1.5,-7,·,-17,3,19,·
